Source: PubChem BioAssay
Arbovirus inh: antivirals against arbovirus infection; arbovirus infection cell-based antiviral screen; inhibition, % at 10 µM; 200,000 tested, 0.37% active;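 active = inhibition from about 30%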;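 note: bluetongue infection of BSR cells; cell survival read as ATP light after 72 h; 0% = infected wells without compound and 100% = uninfected wells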
YopH PTP inh: inhibitors of Yersinia enterocolitica YopH tyrosine phosphatase | fluorescence Ex485/Em525 | inhibition, %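 (about 10 µM by stock and volumes)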 | 140,000 tested, 0.16% active;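 active = inhibition of 50% or more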;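 note: controls were vehicle for no effect and minimum signal wells for full effect; inactives centre near -20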
Mtb growth: M. tuberculosis H37Rv growth inhibitors, H37Rv strain (AID 1626); M. tuberculosis H37Rv growth inhibition; higher % means a stronger effect; inhibition, % at 10 µM, or IC50 in µM where a hit was titrated; 220,000 tested, 0.95% active;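 active = confirmed in a dose series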;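 note: bacteria incubated seven days before Alamar blue readout; 0% = bacteria only wells and 100% = bacteria with antibiotic wells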
RecA splice inh: inhibitors of M. tuberculosis RecA intein splicing; inhibition, %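 (about 9 µM by stock and volumes)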; AID 2221; 290,000 tested, 0.75% active; cell-free RecA intein splicing, fluorescence; in the data active = inhibition above about 30%;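 note: 0% = vehicle wells and 100% = reference inhibitor control wells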
Target sequence (P9WHJ3 whole entry, looked up, canonical isoform): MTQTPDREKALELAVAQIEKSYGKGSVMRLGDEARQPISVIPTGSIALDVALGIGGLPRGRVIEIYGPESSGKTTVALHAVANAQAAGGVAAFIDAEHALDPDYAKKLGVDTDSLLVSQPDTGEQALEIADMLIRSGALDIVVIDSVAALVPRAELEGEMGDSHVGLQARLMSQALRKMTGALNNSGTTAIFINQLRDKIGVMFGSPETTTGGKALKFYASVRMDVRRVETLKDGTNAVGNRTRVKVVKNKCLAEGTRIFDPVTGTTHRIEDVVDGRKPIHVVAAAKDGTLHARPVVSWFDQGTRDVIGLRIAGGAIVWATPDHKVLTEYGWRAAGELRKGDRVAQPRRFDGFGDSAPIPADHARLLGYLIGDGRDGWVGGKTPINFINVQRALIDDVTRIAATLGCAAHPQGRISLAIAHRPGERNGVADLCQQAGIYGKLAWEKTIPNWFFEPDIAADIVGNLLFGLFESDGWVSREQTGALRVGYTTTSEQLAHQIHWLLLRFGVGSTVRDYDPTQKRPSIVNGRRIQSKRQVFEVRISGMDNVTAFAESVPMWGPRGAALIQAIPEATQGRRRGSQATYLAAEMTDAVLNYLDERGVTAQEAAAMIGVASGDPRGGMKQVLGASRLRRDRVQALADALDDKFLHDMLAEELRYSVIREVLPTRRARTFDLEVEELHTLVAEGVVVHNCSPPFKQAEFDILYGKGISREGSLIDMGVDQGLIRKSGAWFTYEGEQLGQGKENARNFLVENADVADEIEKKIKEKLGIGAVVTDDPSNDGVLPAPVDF
Mtb bLac sens: beta-lactam sensitization of Mtb H37Rv; inhibition, % at 25 µM; 330,000 tested, 0.27% active; M. tuberculosis H37Rv growth with meropenem, percent inhibition; hits of this screen are not shown here;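 active = about 74% or more and at least 40 points above the plate without the antibiotic, then above 30% in a dose series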;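 note: growth measured after seven days incubation then overnight dye step; 0% = bacteria only wells and 100% = bacteria with antibiotic; twin plates without the antibiotic show which effects depend on it; some results filed as inactive read as strong as hits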
Arbovirus inh repeat: second read-out of Arbovirus inh, no call of its own (marks repeat the call); inhibition, %; measured here: 10K subset replicate screen; many hits read low in the repeat;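 first of two repeat runs on a subset; 0% = infected and 100% = uninfected wells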
Starred values were filed as active, the others as inactive; x = not tested or not shown. The list is partial; rates above refer to the full screens.

SMILES	Arbovirus inh	YopH PTP inh	Mtb growth	RecA splice inh	Mtb bLac sens	others
O=C(COc1cccc(NC(=O)c2ccco2)c1)c1ccc(F)cc1	-27	-20	7%	x	-1
Cn1cnnc1SCc1ccc(C(=O)NN)cc1	3	x	-3%	-1.4	-3
COCCn1c(SCC(=O)NCc2ccco2)nnc1C(C)C	-5	2	-7%	0.7	-3
COc1ccccc1NC(=O)c1ccc(N2CC3CC(C2)c2cccc(=O)n2C3)c(NC(=O)c2cccnc2)c1 (stereo not given)	x	x	x	9.2	-6
COc1ccc(CCN2C(=O)CC(C(N)=O)SC2=Nc2ccccc2)cc1 (stereo not given)	x	x	-5%	0.1	-5
COC(=O)c1cc(C(=O)OCC(=O)N2c3ccccc3NC(=O)C2(C)C)cc([N+](=O)[O-])c1	5	-11	8%	3.1	7
COCCCNc1oc(-c2ccccc2OC)nc1C#N	-10	-3	-2%	-1.2	x
COc1ccc(Cl)c(Cn2c(NCc3ccccn3)nc3c2c(=O)n(C)c(=O)n3C)c1	7	10	-12%	4.5	1
COCCCn1c(=O)c2ccccc2n(CC(=O)NC2CCCC2)c1=O	x	x	x	-2.7	4
CN(C)c1ccc(/C=N/NC(=O)c2ccc(CN3C(=O)c4cccc5cccc3c45)cc2)cc1	-23	-31	31%	-4.3	30
Cc1cccc(C(=O)OC2CCCN(C)C2)c1C (stereo not given)	x	x	x	2.5	2
Cc1ccc(C(=O)COC(=O)CNC(=O)CN2C(=O)c3ccccc3C2=O)cc1	-8	-23	6%	-0.7	4
Nc1c(-c2n[nH]c(=S)n2-c2ccc(Cl)cc2Cl)cnn1-c1ccccc1	x	x	-1%	-2.8	3
Cc1onc(-c2ccc(Cl)cc2)c1-c1ccnc(SCC(=O)Nc2cc(Cl)cc(Cl)c2)n1	x	x	3%	3.3	3
C=CCn1c(SCC(=O)c2ccc(CNC(C)=O)o2)nc2ccccc2c1=O	10	-9	8%	3.6	0
CSc1cc(C)[nH]c(=O)n1	2	x	-3%	-1.2	-5
CCN(CC(=O)Nc1c(F)cccc1F)C(=O)c1ccc2c(c1)OCCO2	x	x	x	-0.7	-7
Cc1cccc(C)c1OCC(=O)N(Cc1ccc(N(C)C)cc1)C1CCS(=O)(=O)C1 (stereo not given)	x	x	-6%	-1.0	-1
CCOC(=O)c1ccc(N2C(=O)C(O)=C(C(C)=O)C2c2ccc([N+](=O)[O-])cc2)cc1 (stereo not given)	x	x	x	0.7	15
Cc1ccc(C)n1NC(=O)c1ccc(Cl)cc1	0	-11	-2%	1.7	84
CCOC(=O)c1c(NC(=O)CC)sc(C(C)=O)c1C	-5	-42	2%	-3.6	54
CCc1cc2c(C)ccc(C)c2nc1SCC(=O)Nc1c(C)[nH]c(=O)[nH]c1=O	4	-7	3%	0.1	4
Cc1nc(SCc2nc3ccccc3[nH]2)c2oc3ccccc3c2n1	-14	-45	5%	-0.2	-2
CC(C)n1cc([C@@H]2C[C@H]3CN(Cc4cccc(Cl)c4)C(=O)[C@]34CCCN24)cn1	5	x	-2%	-2.2	-7
CC(C)OC(=O)C(C)Nc1ccc(F)c(Cl)c1 (stereo not given)	x	x	1%	-0.8	-6

Some of these compounds in order of count of non-hydrogen atoms, falling.
SMILES	Arbovirus inh	YopH PTP inh	Mtb growth	RecA splice inh	Mtb bLac sens	others
COc1ccccc1NC(=O)c1ccc(N2CC3CC(C2)c2cccc(=O)n2C3)c(NC(=O)c2cccnc2)c1 (stereo not given)	x	x	x	9.2	-6
Cc1onc(-c2ccc(Cl)cc2)c1-c1ccnc(SCC(=O)Nc2cc(Cl)cc(Cl)c2)n1	x	x	3%	3.3	3
CCc1cc2c(C)ccc(C)c2nc1SCC(=O)Nc1c(C)[nH]c(=O)[nH]c1=O	4	-7	3%	0.1	4
Nc1c(-c2n[nH]c(=S)n2-c2ccc(Cl)cc2Cl)cnn1-c1ccccc1	x	x	-1%	-2.8	3
Cc1cccc(C(=O)OC2CCCN(C)C2)c1C (stereo not given)	x	x	x	2.5	2
Cc1ccc(C)n1NC(=O)c1ccc(Cl)cc1	0	-11	-2%	1.7	84

Additional results.
SMILES	Arbovirus inh	YopH PTP inh	Mtb growth	RecA splice inh	Mtb bLac sens	others
CCCCNC(=O)c1onc(CSc2ccc(C(C)C)cc2)c1C(=O)O	16	-35	4%	-1.8	-2
O=C(O)C1CC(=O)N(c2ccc(OCc3ccc(Cl)cc3Cl)cc2)C1 (stereo not given)	8	-37	6%	5.0	57
COc1ccc(/C=C2\SC(=S)N(CC(=O)OCC(=O)Nc3cc(Cl)cc(Cl)c3)C2=O)cc1	x	x	-2%	3.6	0
COc1nc(C)nc2c1ccc1ccccc12	-6	-33	-2%	0.8	-12
NS(=O)(=O)c1cc2c(cc1Cl)NC(C1C[C@H]3C=C[C@@H]1C3)NS2(=O)=O (stereo not given in full)	24	-33	-5%	-1.7	0
CCOc1ccc(OCCC(=O)N(CC)CC(=O)Nc2ccccc2C(F)(F)F)cc1	x	x	x	1.0	-6
O=C(N/N=C/c1ccc(-c2cccc([N+](=O)[O-])c2)o1)c1ccccc1O	-9	x	13%	-7.5	-1
O=C(COc1coc(CN2CCN(c3ccccc3)CC2)cc1=O)Nc1ccc(F)cc1	x	x	x	-1.2	8
COc1ccc(C(CC(=O)N2CCOCC2)c2c(OC)cc(OC)c3ccc(=O)oc23)cc1 (stereo not given)	x	x	3%	-0.3	3
CNC(=S)NCc1ccc2[nH]c(C)cc2c1	19	x	-4%	x	4
O=C(/C=C/Nc1ccc(F)cc1)c1ccc(Br)cc1	-3	x	1%	-3.8	6
O=C(NCCc1ccc(Cl)cc1)C1CCC(=O)N1Cc1ccccc1Cl (stereo not given)	-1	-23	-1%	0.9	-8
COc1cc(OC)c(NC(=O)Cc2ccc(OC)c(S(=O)(=O)N3CCOCC3)c2)cc1Cl	x	x	x	-3.0	-13
CCOC(=O)COc1ccc2c3c(c(=O)oc2c1)CCCC3	x	x	x	-1.2	99
Cc1ccc(C)c(-c2cc(C(=O)Nc3cccnc3)c3ccccc3n2)c1	x	x	x	6.2	7
CN(C(=O)c1c[nH]c(=O)cc1C(F)(F)F)c1ccc(Cl)c(Cl)c1	x	x	-8%	2.5	-4
COC(=O)c1ccc(NC(=O)CN2C(=O)CC(C)S(=O)(=O)c3ccccc32)cc1 (stereo not given)	x	x	x	4.2	-4
CCOC(=O)C1=NN(c2ccc(Cl)cc2)C(c2ccccc2)CC1=O (stereo not given)	5	20	-4%	8.0	-2
COc1cccc(-c2c(C(=O)N/N=C/c3ccsc3)nnn2-c2nonc2N)c1	x	x	x	-3.2	17
Cc1ccc(-c2ccc(=O)n(CC(=O)NCCC(C)C)n2)cc1	x	x	x	1.2	-10
C=CCOc1ccc(CNc2nn[nH]n2)cc1OC	9	-12	x	-0.6	11
Cc1ccc(C(=O)N/C(=C\c2ccc(Cl)cc2)C(=O)NCCCN2CCOCC2)cc1	7	-8	5%	-1.7	3
CCCN(CCC)C(=O)C1CCN(c2cc(C)nc3c(-c4ccc(OC)c(OC)c4)c(C)nn23)CC1	-13	-15	8%	4.4	-4
Cn1c(CC(=O)Nc2ccccc2)cc2ccccc21	x	x	x	-1.0	-1
CC(C)(C)SCCNC(=O)COc1ccc(Cl)cc1	11	-25	-1%	-1.3	0	Arbovirus inh repeat=2

Quoted from above, six compounds:
SMILES	Arbovirus inh	YopH PTP inh	Mtb growth	RecA splice inh	Mtb bLac sens	others
COc1ccc(/C=C2\SC(=S)N(CC(=O)OCC(=O)Nc3cc(Cl)cc(Cl)c3)C2=O)cc1	x	x	-2%	3.6	0
COc1nc(C)nc2c1ccc1ccccc12	-6	-33	-2%	0.8	-12
NS(=O)(=O)c1cc2c(cc1Cl)NC(C1C[C@H]3C=C[C@@H]1C3)NS2(=O)=O (stereo not given in full)	24	-33	-5%	-1.7	0
CCOc1ccc(OCCC(=O)N(CC)CC(=O)Nc2ccccc2C(F)(F)F)cc1	x	x	x	1.0	-6
O=C(N/N=C/c1ccc(-c2cccc([N+](=O)[O-])c2)o1)c1ccccc1O	-9	x	13%	-7.5	-1
O=C(COc1coc(CN2CCN(c3ccccc3)CC2)cc1=O)Nc1ccc(F)cc1	x	x	x	-1.2	8

The list continues.
SMILES	Arbovirus inh	YopH PTP inh	Mtb growth	RecA splice inh	Mtb bLac sens	others
O=C1/C(=C/c2cccnc2)SC(=S)N1Nc1ccccc1	x	x	7%	-9.0	48
CSc1ccccc1NC(=O)COc1ccc(Cl)cc1Cl	12	-6	9%	1.6	10
CCN1CCN(C(=O)Nc2ccccc2OC)CC1	5	-5	3%	x	0
CCOC(=O)c1sc(C(=O)OCC)c(OCCO)c1OCCO	11	-41	-1%	3.1	4
O=C(C1Cc2ccccc2CN1S(=O)(=O)c1ccc(F)cc1)N1CCCCC1 (stereo not given)	-3	-23	-1%	0.8	-5
O=C(O)CCCn1cc(NC(=O)COc2ccccc2)cn1	x	x	x	0.8	8
CC1CCN(S(=O)(=O)c2ccc3c(c2)c(=O)c(C(=O)N2CCOCC2)cn3C)CC1	x	x	x	-3.6	-4
O=C(CCc1ccccc1)NC(=S)Nc1ccc(S(=O)(=O)N2CCOCC2)cc1	1	-29	-6%	1.4	-4
CCN(CC)S(=O)(=O)c1ccc(C)c(NC(=O)Cn2c(=O)cnc3ccccc32)c1	-8	-16	-1%	3.2	1
CCCCn1c(N)c(N(CCOC)C(=O)c2ccc(-n3c(C)ccc3C)cc2)c(=O)[nH]c1=O	x	x	x	-2.5	-11
Cc1nc2ccc(CN(C)c3ccc(C(=O)N[C@@H](CCC(=O)O)C(=O)O)s3)cc2c(=O)[nH]1	x	x	1%	-3.8	0
c1ccc(CCNc2nc(-c3ccccn3)nc3ccccc23)cc1	x	x	79%	16	80
COc1ccc(-c2nnc3ccc(SCC(=O)N4CCCCC4)nn23)cc1OC	-4	-30	-4%	1.8	2	Arbovirus inh repeat=-6
Cc1nc(C)c(/C(O)=C/c2nc3ccccc3oc2=O)s1	-15	6	<0.2µM*	3.2	98
C=CCNC(=S)N1CCN(CCNC2=CC(=O)CC(C)(C)C2)CC1	x	x	-5%	x	2
CC(=O)c1ccc(C(=O)Nc2ccc(N3CCOCC3)cc2)cc1	6	-26	-4%	-3.1	2	Arbovirus inh repeat=2
CC(C)=CCc1c([C@@H]2CCc3ccc(O)cc3O2)cc2c(c1O)OC(C)(C)C=C2	x	x	0%	3.7	-6
O=CNn1cnc2c(oc3nc(-c4ccccc4)cc(-c4ccco4)c32)c1=O	17	x	1%	0.9	43
CCC(Sc1nc2c(cnn2-c2ccccc2)c(=O)[nH]1)C(=O)OC (stereo not given)	20	0	-2%	1.8	-7	Arbovirus inh repeat=10
O=C(COC(=O)c1ccccc1Nc1ccccc1)NCc1ccco1	-2	-39	3%	-2.9	-2
Cc1cccc(C(=O)N2CCC(=O)N(C(COCc3cccc(Cl)c3)Cc3ccccc3)CC2)c1 (stereo not given)	-20	-20	0%	16	-3
O=C(CSc1n[nH]c(-c2cccs2)n1)N1CCN(S(=O)(=O)c2ccc3ccccc3c2)CC1	20	-16	-11%	4.7	-7
CCOc1ccccc1CN1CCNC(=O)C1CC(=O)N(C)Cc1nonc1C (stereo not given)	x	x	x	-0.2	-2
O=C(c1cccc(Cl)c1)N1CCN(c2ccccn2)CC1	-6	-4	-5%	0.9	1
C=CCn1c(SCC(=O)NCCOC)nc2scc(-c3ccco3)c2c1=O	-3	-41	x	1.7	-4

Following part.
SMILES	Arbovirus inh	YopH PTP inh	Mtb growth	RecA splice inh	Mtb bLac sens	others
O=C1N=C(N2CCCCC2)SC1=C1CCCCC1	3	-7	-5%	0.9	74
Cc1[nH]c2ccc(C(=O)N3CCCC3)cc2c1C	x	x	x	-0.6	-2
CCc1ccccc1NS(=O)(=O)c1ccc2[nH]cc(C(=O)NCc3ccco3)c(=O)c2c1	-4	-29	x	7.7	1
CCOc1ccccc1C(=O)Oc1cc(C)[nH]c(=O)c1[N+](=O)[O-]	x	x	x	-2.7	-9
CCOC(=O)Cn1ccc(NC(=O)COc2ccc(F)cc2F)n1	x	x	x	-0.9	10
Cc1ccc(-c2csc(/C(C#N)=C(\O)CN3CCN(C(=O)c4ccco4)CC3)n2)cc1	9	-50	3%	-1.3	73
CCn1c(O)c(/C=N/N2CCOCC2)c(=O)n(CC)c1=S	24	1	9%	-1.7	-2
COc1ccc(C(=O)Nc2ccccc2N2CCOCC2)cc1Br	x	-37	x	-1.8	5
O=C(CSc1nnc(-c2ccncc2)o1)NC1CCCCC1	-4	x	2%	-0.4	0
O=C(CN1CCN(S(=O)(=O)c2ccc(Br)cc2)CC1)Nc1ccc2c(c1)OCO2	-13	-49	-5%	1.6	87

Gathered by group, the compounds so far with a cyano group.
SMILES	Arbovirus inh	YopH PTP inh	Mtb growth	RecA splice inh	Mtb bLac sens	others
COCCCNc1oc(-c2ccccc2OC)nc1C#N	-10	-3	-2%	-1.2	x
Cc1ccc(-c2csc(/C(C#N)=C(\O)CN3CCN(C(=O)c4ccco4)CC3)n2)cc1	9	-50	3%	-1.3	73
